Screening results from PubChem.
UCH37 DUB inh = inhibitors of human deubiquitinating enzyme UCH37 | Q9Y5K5 | purified proteasome/UCH37, Ub-AMC cleavage fluorescence | inhibition, % (no concentration beside the values) | actives 0.33% (n = 330,000) | AID 588478;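 active means mean of two replicates above 20%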;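 further: 0% = compound-free wells with enzyme and 100% = wells lacking proteasome; stock transfer was 100 nL into about 20 µL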
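Material: Human UCH37 enzyme supplied as purified proteasome complex | Schedule: 30 min compound-proteasome preincubation then 25 min substrate reaction, room temperature | Detection: AMC fluorescence from Ub-AMC cleavage, excitation 355 nm, emission 460 nm | Benchmarks: Wells without proteasome as full block, compound-free enzyme plus substrate as uninhibited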
ALR H2O2 inh = human ALR oxidase inhibition via reduced H2O2 | actives 3.8% (n = 290,000) | inhibition, % (concentration not given with the values) | purified ALR, DTT oxidation, H2O2 HRP-luminol luminescence;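 active means mean and each replicate at 75% or more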;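 further: stock transfer was 7.5 nL into about 7.5 µL; 0% = neutral wells and 100% = wells with inactivated enzyme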
Beta2AR agonist = activates human beta-2 adrenergic receptor causing internalization. actives 0.43% (n = 340,000). Am2.2-beta2AR cells, FAP receptor internalization, flow cytometry; reference of the scale not given here. P07550. response, % (concentration not given with the values);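 active means response above a set limit, near 3 SD of response in nonfluorescent compounds, cut at about 42% in these data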;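 further: stock transfer was 100 nL into about 11 µL; a reference agonist was the positive control; negative values mostly stem from fluorescent compounds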
LANA-H2A inh = blocks KSHV LANA binding to histone H2A/H2B; Q9QR71; cell-free LANA-H2A/H2B peptide, fluorescence polarization; inhibition, % (concentration not given with the values); actives 0.6% (n = 320,000); in the data active means inhibition mostly above about 10%, no sharp cut-off; inactive means mostly below about 6.7%;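 further: stock transfer was 7.5 nL into about 10 µL; 0% = median of vehicle wells and 100% = median of positive control wells; one replicate is shown; the record names a cut of 25% in any replicate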
Target sequence (Q9QR71 whole entry, looked up): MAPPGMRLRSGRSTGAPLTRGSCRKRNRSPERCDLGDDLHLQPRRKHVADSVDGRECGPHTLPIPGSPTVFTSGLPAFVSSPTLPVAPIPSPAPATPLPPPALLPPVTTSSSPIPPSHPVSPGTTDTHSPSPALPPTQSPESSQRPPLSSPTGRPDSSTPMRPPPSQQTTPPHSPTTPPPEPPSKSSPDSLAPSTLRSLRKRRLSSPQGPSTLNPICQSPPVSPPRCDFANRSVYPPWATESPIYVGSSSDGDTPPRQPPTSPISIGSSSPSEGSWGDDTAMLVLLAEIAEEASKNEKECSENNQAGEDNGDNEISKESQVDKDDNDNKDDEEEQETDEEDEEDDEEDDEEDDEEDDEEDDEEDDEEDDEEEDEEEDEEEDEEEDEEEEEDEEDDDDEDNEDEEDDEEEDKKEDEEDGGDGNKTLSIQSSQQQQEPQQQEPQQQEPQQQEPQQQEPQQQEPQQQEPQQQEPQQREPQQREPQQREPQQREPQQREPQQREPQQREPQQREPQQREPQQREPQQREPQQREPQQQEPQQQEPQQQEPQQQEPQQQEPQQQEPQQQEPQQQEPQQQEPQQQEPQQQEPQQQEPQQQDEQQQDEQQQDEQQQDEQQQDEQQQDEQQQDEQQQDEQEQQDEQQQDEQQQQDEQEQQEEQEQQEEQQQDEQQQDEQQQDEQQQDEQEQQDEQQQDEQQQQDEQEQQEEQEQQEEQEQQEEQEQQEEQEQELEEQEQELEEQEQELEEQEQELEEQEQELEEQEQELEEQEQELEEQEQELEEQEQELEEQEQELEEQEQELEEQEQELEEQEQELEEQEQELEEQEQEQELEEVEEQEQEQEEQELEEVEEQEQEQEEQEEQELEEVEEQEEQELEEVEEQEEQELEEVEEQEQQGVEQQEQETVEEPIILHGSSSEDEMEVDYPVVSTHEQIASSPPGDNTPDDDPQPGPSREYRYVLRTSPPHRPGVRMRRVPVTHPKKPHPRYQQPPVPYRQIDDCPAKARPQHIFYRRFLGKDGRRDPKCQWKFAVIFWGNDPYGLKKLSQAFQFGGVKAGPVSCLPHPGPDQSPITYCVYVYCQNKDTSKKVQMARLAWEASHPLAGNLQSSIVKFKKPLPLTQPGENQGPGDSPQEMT
FGF22 binding = shifts melting point of recombinant human FGF22 | Q9HCT0 | recombinant FGF22 thermal shift, SYPRO orange fluorescence; percent of sucrose octasulfate shift, DMSO zero | calls only at 9.99 µM | actives 1.5% (n = 340,000);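 active means melting point raised past a set limit in the mean and every replicate; three in four hits are not shown here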
HNF4A DNA FP = change in binding of human HNF4 alpha to DNA; actives 0.3% (n = 360,000); activity change, % at 10 µM; P41235; AID 1224865; HNF4a-FITC DNA binding, fluorescence polarization, 1 h; in the data active means activity change above about 30%, passing the limit was not always enough;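 further: controls were the assay level and a saturating level of protein; the project sought stronger binding though the title names inhibitors; some compounds called inactive have numbers as strong as hits; positive values seem to mean higher polarization but the record does not say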
Ecoli growth = E. coli growth inhibition | actives 0.21% (n = 330,000) | OD600 absorbance (no concentration beside the values) | AID 1053175 | Escherichia coli growth, OD600, 23 h; active compounds read low;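 active means OD600 absorbance below the run mean of sample wells minus 3.6 SD, in any replicate, cut at about 0.56 in these data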;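 further: stock transfer was 300 nL into about 60 µL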
* marks the source's active call; other numbers are inactive results; i = inactive; nt = no result given.

SMILES	UCH37 DUB inh	ALR H2O2 inh	Beta2AR agonist	LANA-H2A inh	FGF22 binding	HNF4A DNA FP	Ecoli growth
COc1ccc(-c2cn(Cc3ccc(C(N)=O)cc3)c(CCN)n2)cc1	-1.3	-16	-2	-4.7	i	0.0	0.71
CCCCN(c1ccc(C(=O)OC)cc1)S(=O)(=O)c1ccccc1	1.0	-3	1	12	i	-0.1	0.66
COc1ccc(C(=O)NNC(=O)c2cc(C)[nH]n2)cc1	2.2	47	-3	1.7	nt	2.8	0.65
O=C(C1CCN(S(=O)(=O)N2CCOCC2)CC1)N1CCN(c2ccc(F)cc2)CC1	6.6	18	-1	4.3	i	-2.6	0.66
COc1ccccc1NC(=O)N1CCn2c(nc3ccccc32)C1	2.3	-4	-14	-3.2	nt	1.9	0.65
COc1ccccc1CN1C(=O)CCC1(C)C(=O)NCc1cccnc1 (centres undefined)	5.5	-17	0	-1.4	nt	1.2	0.66
CCN(CC)CCCC1(CN)OCCc2ccccc21 (centres undefined)	-5.7	-33	1	-3.3	nt	-3.2	0.77
Cc1ccc(NC(=O)c2cc(S(=O)(=O)N3CCCCC3)ccc2N2CCOCC2)cc1S(=O)(=O)N(C)C	2.4	nt	-7	nt	i	1.9	0.69
Cc1ccc(NC(=O)COC(=O)CCc2c[nH]c3ccccc23)c(C)c1	-0.1	nt	-2	4.3	i	1.0	0.66
CCOCCn1c(CN2CCC(Cc3ccccc3)CC2)nc2c1c(=O)n(C)c(=O)n2C	-0.6	-6	-11	12	i	1.1	0.66
Cc1ccc(NC(NC(=O)OCCn2c([N+](=O)[O-])cnc2C)C(Cl)(Cl)Cl)cc1 (centres undefined)	5.6	58	nt	-5.6	nt	nt	0.65
N#C/C(=C\c1ccncc1)c1ccccn1	3.0	2	-5	-4.8	i	-4.1	0.62
CCC(C)NC(=O)c1cc(Sc2nnc(C)s2)nc2ccccc12 (centres undefined)	1.7	23	nt	-1.3	i	nt	0.66
COC(=O)Cn1c(=NC(=O)CCS(=O)(=O)c2ccccc2)sc2c(OC)ccc(OC)c21	-0.5	-4	3	3.3	i	-3.7	0.7
COc1ccc(C(=O)CCC(=O)N2CCN(c3cccc(Cl)c3)CC2)cc1	6.5	-1	2	2.3	i	8.4	0.73
COCCCn1c(=N)c(C(N)=S)cc2c(=O)n3cccc(C)c3nc21	-31	nt	12	2.7	i	-4.6	0.7
CCc1ccc2[nH]c(=O)c(Cc3ccccc3)c(O)c2c1	-5.3	25	-1	5.8	i	-2.0	0.65
Clc1ccccc1-c1nnc2sc(-c3ccccn3)nn12	1.3	nt	1	nt	nt	-4.5	0.66
CSc1nc2nc3c(cc2c(=O)n1-c1ccccc1C)CCCC3	1.6	nt	-14	-0.7	i	4.5	0.67
Cc1cc(OCC(=O)Nc2ccc(OCc3ccccc3)cc2)nc(C(C)C)n1	1.4	-1	12	3.2	nt	-1.2	0.68
CCc1c(C(=O)Nc2ccc(S(=O)(=O)N3CCOCC3)cc2)csc1C	2.4	0	7	-2.5	nt	-2.1	0.67
CN(Cc1cnccn1)C(=O)C1CCC(=O)N(CCc2ccc(Cl)cc2)C1 (centres undefined)	3.0	-1	-4	-2.7	i	-3.3	0.71
COc1ccc(-c2cc(C(=O)N3CC4(C)CC3CC(C)(C)C4)no2)cc1 (centres undefined)	5.5	-8	-6	-9.6	nt	0.0	0.63
CCc1noc(C)c1C(=O)NNC(=O)c1nn(C)c(=O)c2ccccc12	0.8	nt	4	-4.1	i	-6.1	0.62
COc1ccc(NC(=O)CN2CCN(C(C)=O)CC2)cc1S(=O)(=O)N1CCOCC1	1.4	0	7	1.1	i	1.8	0.7
CCOC(=O)C1=C(C)N=C2SCCC(=O)N2C1c1ccc(OC)cc1 (centres undefined)	5.1	-1	nt	4.2	nt	nt	0.65
COc1ccc(OC)c(/C=C/c2ccc3cccc(O)c3n2)c1	nt	-1	18	5.9	i	1.9	nt
Cc1cccc(/C=N/NC(=O)c2ccc(NC(=O)c3ccc(Cl)cc3)cc2)n1	nt	0	-5	2.7	i	1.1	nt
O=c1c2ccccc2ccc2ccc(P(=O)(O)O)cc12	-7.2	-13	-2	9.0	i	1.4	0.67
Cc1cc(C)cc(NC(=O)CSc2nc3c(c(=O)[nH]2)CN(Cc2ccc(F)cc2)CC3)c1	0.9	-32	8	-1.1	i	2.3	0.7
NS(=O)(=O)c1ccc(NC(=O)COC(=O)Cn2cnc3ccccc3c2=O)cc1	5.7	-13	-4	-8.7	i	6.3	0.7
Cc1ccc(NC(=O)c2cnc3ccccc3n2)cc1C	1.0	-10	-4	0.7	i	1.2	0.66
CC(C)C(=O)Nc1ccc(N2CCOCC2)c(S(=O)(=O)Nc2ccccc2Cl)c1	0.9	5	-3	-0.7	i	-0.1	0.65
Cc1ccc2c(c1)[C@H]1[C@H](CO2)[C@H](c2ccccc2)[C@]2(C)C(=O)Nc3cc(F)c(F)cc3C(=O)N12	-0.2	0	20	-2.7	i	1.2	nt
COc1ccc(CCn2nnnc2C(CC(C)C)N2CCN(c3ncccn3)CC2)cc1OC (centres undefined)	2.4	-23	-6	-2.0	nt	-2.0	0.7
COCCNC(=O)Cn1cnc2c1c(=O)n(C)c(=O)n2C	3.1	-13	-5	-2.5	nt	-2.5	0.73
N/C(CS(=O)(=O)c1ccc(F)cc1)=N\O	nt	1	-10	1.4	i	1.7	nt
CSCCC(NC(=O)c1ccccc1)C(=O)N1CC=C(c2ccccc2)CC1 (centres undefined)	3.1	2	6	-2.4	i	-1.4	0.72
CCCCN1CC(=O)N2Cc3[nH]c4ccccc4c3C[C@H]2C1=O	1.3	-7	0	-2.1	i	-0.8	0.61
COc1cccc(/C=C/C(=O)OCC(=O)Nc2cccc(S(=O)(=O)N(C)C)c2)c1	-14	5	8	-0.7	i	0.6	0.66
Nc1nnc(CC(=O)N/N=C\c2ccc(-c3cccc(Cl)c3)o2)s1	nt	9	18	-0.2	i	3.1	nt
O=C(NCc1cccnc1)/C(=C/c1ccc(-c2ccc(Cl)cc2)o1)S(=O)(=O)c1ccccc1	-2.4	62	108*	3.4	i	3.2	0.64
O=C(CSc1nncn1-c1cccnc1)Nc1ccccc1[N+](=O)[O-]	1.9	-3	-3	-5.3	i	-1.2	0.6
S=c1[nH]ccc2ccccc12	nt	nt	4	nt	i	5.1	nt
CN(C)S(=O)(=O)c1ccc(-c2ccccc2)cc1	0.9	-2	-2	2.0	nt	-1.0	0.68
O=C(CCc1c[nH]c2ccccc12)NCC(=O)Nc1ccc(F)c(F)c1F	1.0	-15	0	-4.6	i	-0.1	0.73
COc1ccc(OCCOC(=O)CNC(=O)c2ccc(Cl)cc2Cl)cc1	1.7	-2	1	0.4	i	3.0	0.68
Clc1ccc2nc(CSc3nnc4ccccn34)cn2c1	-1.0	8	6	0.2	nt	-1.5	0.69
COc1ccc(C=Nc2cccc3ncccc23)cc1	1.9	-36	-3	-1.0	i	-0.3	0.7
COc1cccc(OC)c1OCCCOc1cccc2cccnc12	1.7	-3	2	-13	i	-2.5	0.66
CC(C)CN(C(=O)CSc1nnc2ccccn12)c1c(N)n(CC(C)C)c(=O)[nH]c1=O	-0.3	5	-1	4.1	nt	-1.0	0.7
COc1cc2c(C(=O)NCCCN3CCN(c4cccc(Cl)c4)CC3)cn(C)c(=O)c2cc1OC	3.9	4	-2	2.2	nt	0.8	0.7
CC(=O)Nc1cccc(NC(=O)c2ccc3c(c2)CCN3S(C)(=O)=O)c1	5.8	-9	4	4.5	i	-1.8	0.66
COc1ccc(-n2nc3c(N4CCC(C(=O)NCc5ccco5)CC4)nnc(C)c3c2C)cc1	-18	4	7	-3.3	nt	4.3	0.71
O=C(Nc1ccc(Oc2ccccc2)nc1)C1CCN(Cc2cccc(F)c2)CC1	0.6	-3	-5	-2.4	i	5.6	0.6
O=C(Nc1ccc(-n2cc(Br)cn2)cc1)c1ccncc1	3.0	0	-7	2.6	i	2.5	0.7
COc1ccccc1NC(=S)N(Cc1ccc(C)cc1)Cc1ccccn1	-2.7	nt	-2	-8.5	i	3.1	0.73
COc1cc(C2NC(=O)NC(C)=C2C(C)=O)ccc1O (centres undefined)	1.4	11	-2	-4.3	i	-0.2	0.68
CCN(CC)c1ccc(NC(=O)C2CCCC2)cc1	2.2	nt	11	1.2	i	5.2	0.67
O=C1CCC(Cc2ccccc2)N1 (centres undefined)	3.1	0	10	1.8	nt	0.9	0.7
More results
SMILES	UCH37 DUB inh	ALR H2O2 inh	Beta2AR agonist	LANA-H2A inh	FGF22 binding	HNF4A DNA FP	Ecoli growth
CN(CC(=O)Nc1cccc2ccccc12)C(=O)/C=C/c1cccs1	5.8	nt	-17	-2.5	nt	3.2	0.73
COc1ccc(N(CC(=O)NCc2ccc(Cl)cc2)S(=O)(=O)c2c(C)n[nH]c2C)cc1	2.5	-3	-12	-3.4	i	-1.0	0.72
CC(C)C(O)(CC#CCN1CCCC1)c1ccccc1 (centres undefined)	4.4	2	-5	6.4	i	-4.0	0.69
O=C(Cn1nnc(-c2cc(C(F)(F)F)cc(C(F)(F)F)c2)n1)NNC(=S)Nc1ccc(Cl)cc1	4.0	nt	4	4.1	i	0.6	0.67
NNC(=O)CS(=O)(=O)CS(=O)(=O)CC(=O)NN	1.4	61	3	0.1	i	0.8	0.65
COC1OC(CO)C(N=C(C)C)C1O (centres undefined)	1.6	nt	-1	nt	i	0.8	0.7
O=C1Nc2ccc(F)cc2C12OCCO2	2.8	-11	-7	4.2	i	-3.1	0.65
c1ccc2cc(CN3CCOCC3)ccc2c1	-0.7	-7	1	-2.4	nt	0.6	0.67
O=C(COC(=O)COc1ccccc1F)NC1CC1	-1.6	-8	3	-3.0	i	0.4	0.66
Cc1ccc(S(=O)(=O)NN2C(=O)/C(=C/c3ccccn3)SC2=S)cc1	11	nt	5	2.3	nt	-3.7	0.69
COc1ccc(CNC(=O)CN(c2cccc(OC)c2)S(C)(=O)=O)cc1	5.1	-8	-10	-1.2	i	-0.3	0.68
COc1ccc(C2CC(c3ccccc3)=NN2C(=O)COC(=O)CNC(=O)c2ccccc2)cc1 (centres undefined)	-0.1	-5	-7	-0.5	i	-0.6	0.68
CCSc1nnc(NC(=O)COc2ccccc2)s1	0.8	-6	5	1.5	i	4.6	0.65
Cc1cc(CNC(=O)COc2ccc(F)cc2F)c2ccccc2n1	2.6	1	-9	-0.3	i	0.6	0.66
N#Cc1cc2c(nc1SCc1ccccc1)CCCCC2	7.1	nt	6	-4.9	nt	0.0	0.81
Cc1onc(-c2ccccc2)c1C(=O)NCc1ccco1	-0.7	9	1	-6.2	nt	-2.1	0.71
O=C(NC1CCCN(CCc2ccccc2)C1)C1CCCC1 (centres undefined)	0.1	0	-8	4.1	i	-2.4	0.69
CNC(=O)c1cc(S(=O)(=O)NCc2ccncc2)ccc1OC	-0.2	-12	1	-6.3	i	2.2	0.7

Complete entries from above. Order of values: UCH37 DUB inh | ALR H2O2 inh | Beta2AR agonist | LANA-H2A inh | FGF22 binding | HNF4A DNA FP | Ecoli growth
O=C(NC1CCCN(CCc2ccccc2)C1)C1CCCC1 (centres undefined) as listed: 0.1 | 0 | -8 | 4.1 | i | -2.4 | 0.69
CNC(=O)c1cc(S(=O)(=O)NCc2ccncc2)ccc1OC as listed: -0.2 | -12 | 1 | -6.3 | i | 2.2 | 0.7
Cc1onc(-c2ccccc2)c1C(=O)NCc1ccco1 as listed: -0.7 | 9 | 1 | -6.2 | nt | -2.1 | 0.71
N#Cc1cc2c(nc1SCc1ccccc1)CCCCC2 as listed: 7.1 | nt | 6 | -4.9 | nt | 0.0 | 0.81
Cc1cc(CNC(=O)COc2ccc(F)cc2F)c2ccccc2n1 as listed: 2.6 | 1 | -9 | -0.3 | i | 0.6 | 0.66

Only part of the results is shown, so the mix of outcomes need not match the whole.
